Tg IFNy HTS: T. gondii growth inhibition under IFN-gamma; 69,000 tested, 3.8% active; Toxoplasma gondii growth in IFN-gamma-treated host cells; stronger effect = lower value; reference of the scale not given here; AID 1259416; activity change, negative = inhibition, %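 (about 20 µM by stock and volumes)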;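 active = below -70%; inconclusive = fit judged invalid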;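 note: host cells are HeLa cells infected with Toxoplasma gondii; parasite growth read as luciferase light; one replicate is shown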
Starred values were filed as active, the others as inactive; ? = inconclusive; & = joins results of further samples.

nr	compound	Tg IFNy HTS
1	CC(=O)N1C[C@@H]2C3(CCN(S(=O)(=O)C4CC4)CC3)CC[C@]2(C(=O)N2CCCC2)C1	-33.9
2	O=C(Cc1cccc(F)c1)Nc1ccc(-c2nc(-c3ccccc3)co2)cc1	-9.7
3	Cc1ccc2nc(CCc3ccc(NC(=O)CN4C(=O)NC(C)(C)C4=O)cc3)[nH]c2c1	24.8
4	O=C(O)COc1ccc(-n2cc(CCO)cn2)cc1Cl	1.0
5	COC(=O)c1c(C)nn(C(=O)c2cccs2)c1-c1snnc1C	-15.3
6	CN1CC(=O)N2CCN(C(=O)COc3cccnc3)CC2C1=O (stereo not given)	1.4
7	C[C@H](CO)N1C[C@H](C)[C@@H](CN(C)C(=O)c2ccncc2)OCCCC[C@H](C)Oc2ccc(NS(=O)(=O)c3cccs3)cc2C1=O	-22.9
8	COc1ccc(-c2c(C)c3ccccc3[nH]c2=O)cn1	10.1
9	COCC(=O)Nc1cccc(-c2ccc3c(c2)OCCO3)c1	59.4
10	CCCC#Cc1ccc2c(c1)O[C@H](CN(C)Cc1ccccn1)[C@@H](C)CN([C@@H](C)CO)S2(=O)=O	?
11	Cn1c(=O)c2cnc(-c3ccc(C(F)(F)F)cc3)nc2n(C)c1=O	-18.0
12	Cc1ccccc1C(=O)N1CSC[C@@H]1C(=O)NCCc1csc(-c2ccccc2)n1	-12.2

Structures listed so far with fluorine, in the order listed:
nr	compound	Tg IFNy HTS
2	O=C(Cc1cccc(F)c1)Nc1ccc(-c2nc(-c3ccccc3)co2)cc1	-9.7
11	Cn1c(=O)c2cnc(-c3ccc(C(F)(F)F)cc3)nc2n(C)c1=O	-18.0

Back to the main list, starting 2 compounds before the break.
nr	compound	Tg IFNy HTS
11	Cn1c(=O)c2cnc(-c3ccc(C(F)(F)F)cc3)nc2n(C)c1=O	-18.0
12	Cc1ccccc1C(=O)N1CSC[C@@H]1C(=O)NCCc1csc(-c2ccccc2)n1	-12.2
13	CCC(=O)N1CC2(CN(C(C)=O)C2)c2c([nH]c3cc(OC)ccc23)[C@@H]1CO	-1.8
14	CN(C/C=C/c1ccccc1)Cc1cccc2ccccc12	-27.0
15	O=c1c2snc(-c3ccc(Cl)cc3)c2ncn1CCc1ccccc1	29.8
16	O=C(Cn1ncc2c(N3CCN(c4ccccn4)CC3)ncnc21)NCc1ccco1	-97.0*
17	C=CCS(=O)(=O)NCC1CCN(Cc2ccc(C)c(C)c2)C1 (stereo not given)	-2.7
18	Cn1ccnc1C(=O)N[C@H]1CN(c2ncccn2)[C@H]2CCCO[C@@H]12	9.1
19	CCOC(=O)CC(NC(=O)N1CCC2(CC1)Nc1cc(OC)ccc1-n1cccc12)c1ccccc1 (stereo not given)	71.1
20	O=C(c1ccc(F)cc1Cl)N1CCC(c2ccncc2)CC1	-44.1
21	Cc1nc2ccc(C(F)(F)F)cc2nc1C	6.6
22	Cn1cnnc1SCC(C)(C)NS(=O)(=O)c1ccc(Cl)cc1	-29.9
23	Cc1oc(C2CCN(C(=O)Cc3cccc(F)c3)CC2)nc1C(=O)N1CCCC1	-10.9
24	Cc1ccc2[nH]cc(-c3ccc(NCCO)nn3)c2c1	1.1
25	O=C(CC(c1ccccc1)c1ccccc1)NCc1ccccc1	67.0
26	CSc1nc(-c2cccs2)cc(C(F)(F)F)c1C#N	89.3
27	CCn1c(=O)c(-c2nc(-c3ccc(C)c(C)c3)no2)c(O)c2ccccc21	18.5
28	Cc1ccc(C(=O)C(C)OC(=O)C2CC(=O)N(C3CCCCC3)C2)cc1 (stereo not given)	0.8
29	Cc1nccn1CCCC(=O)N1C[C@@H]2[C@@H]3CC[C@@H](C3)[C@@H]2C1	-6.5
30	Cn1cnc2cc(C(=O)N3C[C@H]4C[C@H](O)[C@@H](O)C[C@H]4C3)cnc21	15.8
31	CC1=CC[C@@H]2CN(C(=O)c3cc(C(C)(C)C)[nH]c(=O)n3)C[C@@H]2C1	5.8
32	Cn1c(-c2ccccc2)cnc1NC(=O)C(c1ccc(F)cc1)N1CCOCC1 (stereo not given)	64.6
33	CC(=O)N[C@H]1[C@H]([C@H](O)[C@H](O)CO)O[C@](O)(C(=O)O)C[C@@H]1O	10.8
34	Cc1cc2ccc(C)c(C)c2nc1SCC#N	?
35	O=C(O)CSCC(=O)NCc1csc2ccc(Cl)cc12	17.0
36	Cc1nnsc1C(=O)N1CCCC(N(C)C)CC1 (stereo not given)	-3.4
37	O=C(NC1CCN(c2nc(-c3ccc(Cl)cc3)cs2)CC1)c1ccco1	180.6
38	CCN1CCCC1CNC(=O)C1CCN(Cc2cc3ccccc3n2Cc2ccccc2Cl)CC1 (stereo not given)	-45.4
39	CCOC(=O)c1ccc(NC(=O)N2CCN(Cc3nc(-c4ccc(C)cc4)oc3C)CC2)cc1	4.4
40	O=S(=O)(CC(O)Cn1ccc(C(F)(F)F)n1)c1ccc(Cl)cc1 (stereo not given)	1.3
41	Cc1cnc(N2Cc3nccn3CC(Cn3ncccc3=O)C2)nc1 (stereo not given)	-58.8
42	CCn1nc2c(c1C(=O)NCc1nc3ccccc3n1CC)CCCC2	78.6
43	CS(=O)(=O)NC1CCN(Cc2ncc[nH]2)CC1	4.4
44	CCOc1ccc(CNC(=O)c2nnn(Cc3nc(-c4cccc(C)c4)oc3C)c2C)cc1	-34.4
45	CCC(=O)N1[C@H](CO)[C@H](c2ccc(C#CC3(O)CCCC3)cc2)[C@@H]1CNC(C)=O	13.2
46	O=C(NCCc1csc(-c2ccccc2)n1)c1ccccc1F	454.7
47	CCn1c(SCC(=O)Nc2cc(OC)cc(OC)c2)nnc1C(C)C	5.7
48	O=C(O)C1CC2(CCNCC2)CN1Cc1cc(F)ccc1F (stereo not given)	2.7
49	CCc1ccc(Nc2nc(C(=O)N(C)Cc3ccccc3)nc3ccccc23)cc1	-37.8
50	COCCNc1c(-c2cnc(N(C)C)nc2)nc2cnccn12	-6.2
51	CC(NC(=O)CCn1ccc(=O)[nH]c1=O)C1=CCCCC1 (stereo not given)	1.3
52	COc1ccccc1NC(=O)c1nc(Nc2ccc(C)cc2)c2ccccc2n1	-33.1
53	c1ccc(Nc2cccc3c(Nc4ccccc4)cccc23)cc1	14.4
54	Cc1ccc(CN(Cc2cc3cccc(C)c3[nH]c2=O)C(=O)c2ccco2)cc1	-79.3*
55	O=C(COc1ccccc1C(=O)NCC1CCCO1)NC12CC3CC(CC(C3)C1)C2 (stereo not given)	-55.2
56	Cc1nc2sc(C(=O)NCCCOc3ccccc3C)c(C)c2c(=O)[nH]1	-17.3
57	O=C(CN1C(=O)CCc2cc(S(=O)(=O)N3CCOCC3)ccc21)NCc1ccc(Cl)cc1	-18.0
58	CC(Cc1ccc(O)c(O)c1)(NN)C(=O)O (stereo not given)	-6.2
59	COc1ccc2c(c1)NC1(CCN(S(=O)(=O)c3cccs3)CC1)c1cccn1-2	-2.7
60	O=C(c1ccnnc1)N1CCn2nc(C(=O)N3CCCC3)cc2C1	-56.6

The closing 2 compounds of the part before lead into the next:
nr	compound	Tg IFNy HTS
59	COc1ccc2c(c1)NC1(CCN(S(=O)(=O)c3cccs3)CC1)c1cccn1-2	-2.7
60	O=C(c1ccnnc1)N1CCn2nc(C(=O)N3CCCC3)cc2C1	-56.6
61	O=C1CCC(=O)N1c1ccc(C(=O)N2CCCCC2CN2CCCCCC2)cc1 (stereo not given)	-6.1
62	Cc1ccccc1NC(=O)N1C[C@H]2CC[C@@]3(N=C(c4ccccc4)NC3=O)[C@@H]2C1	3.1
63	Cc1nc2ccc(F)cc2cc1C(=O)NCCCOc1ccccc1F	-50.7
64	O=C(Sc1ccc(Cl)cc1)c1cccnc1Oc1ccccc1	-102.4*
65	C[C@H](CO)N1C[C@H](C)[C@@H](CN(C)S(=O)(=O)c2cccs2)Oc2ccc(NC(=O)Nc3cccc4ccccc34)cc2C1=O	-19.5
66	Cc1oc(C2CCN(C(=O)Nc3ccccc3Cl)CC2)nc1C(=O)N(C)C	17.3
67	COc1ccc(C(=O)N(c2ccc(C)c(F)c2)C2(C(=O)NCc3ccccc3)CCN(C(C)=O)CC2)cc1	2.8
68	Cc1c(CN2CCCC(c3cc(C(=O)N4CCC(C)CC4)on3)C2)cnn1C (stereo not given)	22.8
69	Cc1cc(-n2cnnc2C2CCOCC2)n(C)n1	-7.8
70	O=C(CN1C(=O)c2ccccc2C1=O)NCCc1csc(-c2ccc(F)cc2)n1	58.8
71	NCC[C@H]1CC[C@H](NS(=O)(=O)c2ccc(Cl)cc2)[C@H](CO)O1	-33.5&-33.2
72	Cc1ccc(-c2nnc(C3CCC(CNC(=O)CCc4c(C)noc4C)CC3)o2)cn1 (stereo not given)	25.4

Screen by screen, quoted from above:
Entries 25–34 in Tg IFNy HTS read 67.0, 89.3, 18.5, 0.8, -6.5, 15.8, 5.8, 64.6, 10.8, ?

Continued:
nr	compound	Tg IFNy HTS
73	CN(C)C(=O)N1CCC2(CC1)CC(COCC1CC1)N(CC1CC1)C2 (stereo not given)	0.8
74	C[C@H](CO)N1C[C@H](C)[C@H](CN(C)Cc2ccc3cccnc3c2)OCc2cnnn2CCCC1=O	102.3
75	CCOc1ccc(C2CCCN2C(=O)CNc2ccc3nnc(C)n3n2)cc1 (stereo not given)	0.4
76	CCC(NC(=O)c1c[nH]c(=O)[nH]1)c1ccccn1 (stereo not given)	2.8
77	COC(=O)c1cc(S(=O)(=O)C(C)C)cs1	2.5
78	COc1ncccc1-c1nn(C)c2ccc(C)cc12	7.3
79	CCS(=O)(=O)N1[C@H](CO)[C@H](c2ccc(C#CCC3CCCC3)cc2)[C@@H]1C#N	11.7
80	O=C(Nc1cccc(Nc2ncc(Br)c(NCCc3cnc[nH]3)n2)c1)N1CCCC1	-56.8
81	Cc1onc(-c2ccccc2)c1C(=O)Oc1ccccc1N1CCOCC1	-17.8
82	Cc1nc(C)c(C(=O)N2CCCC2c2nc(-c3ccc(F)cc3F)no2)s1 (stereo not given)	13.1
83	C[C@@H]1CN([C@@H](C)CO)S(=O)(=O)c2ccc(-c3cccc(C#N)c3)cc2O[C@H]1CN(C)C(=O)c1ccccc1	-99.1*
84	CN1CCC(Cc2noc(CCc3nc4cccnc4n3C)n2)CC1	0.3
85	O=C(CC1N=C2c3ccccc3N=C(SCc3ccc(Cl)cc3)N2C1=O)NCCc1ccccc1 (stereo not given)	-48.3
86	Cc1ccc(NC(=O)C2CCN(c3nnnn3-c3ccccc3)CC2)c(C)c1	-2.1
87	CCC(=O)NCCc1csc(C2CCCN(C(=O)c3cc4ccccc4[nH]3)C2)n1 (stereo not given)	-47.8
88	Cc1cccnc1C(C)NC(=O)c1cccc2c1NCCC2 (stereo not given)	19.2
89	CNc1ncccc1C(=O)NCC1CCCN(Cc2cnc[nH]2)C1 (stereo not given)	7.5
90	Cn1c(SCc2nccn2Cc2ccc(Cl)cc2)nnc1C(F)(F)F	48.5
91	Cc1cc(NC(=O)c2c(O)c3cccnc3n(-c3ccc(F)cc3)c2=O)ccc1F	43.0
92	COCCNC(=O)[C@H]1[C@H](CO)[C@H]2Cn3c(cccc3=O)[C@@H]1N2Cc1cccc(Cl)c1	-12.3
93	CCc1nn(Cn2nnc3ccccc32)c(=O)c2cc3ccsc3n12	?
94	CCCC#Cc1ccc([C@H]2[C@H](C#N)N(C(=O)CN3CCOCC3)[C@H]2CO)cc1	8.0
95	O=S(=O)(NCCC1CCCN(Cc2ccccn2)C1)C1CC1 (stereo not given)	-0.6
96	OCCNc1c2c(nc3nc4ccccc4n13)CCC2	-1.6
97	Fc1cnccc1N1CCN(Cc2ccccc2OC(F)F)CC1	-51.0
98	O=C(c1cscn1)N1CCC(Cc2cncc3ccccc23)C1 (stereo not given)	-3.6
99	CCOc1ccc(-c2nc(Cn3nnc(C(=O)Nc4ccccc4CC)c3C)c(C)o2)cc1	-11.4
100	C=CCN1CCN(S(=O)(=O)c2cn(C)cn2)Cc2cccnc21	-46.5
101	CC(C)Nc1ncc(CN2CCC(Cc3cccc(C(=O)O)c3)C2)cn1 (stereo not given)	3.6
102	NCC1Cc2cccc(-c3cc4c(cc3C(N)=O)OCO4)c2O1 (stereo not given)	2.7
103	C/C(=C\c1ccccc1)CN1CC2CCCN2C[C@H]1C (stereo not given in full)	-0.9
104	CCOCC(=O)NCCc1csc(-c2ccc(Cl)cc2)n1	-38.0
105	Cc1ccn(CCC(=O)NCCN2Cc3ccccc3OC(c3ccccc3F)C2)n1 (stereo not given)	7.4
106	CC(=O)OCC(=O)[C@@]1(OC(C)=O)[C@@H](C)C[C@H]2[C@@H]3C[C@H](F)C4=CC(=O)C=C[C@]4(C)[C@@]3(F)[C@@H](O)C[C@@]21C	14.5
107	COc1cc(-c2nnc(-c3cc(-c4ccccc4)nc4ccccc34)o2)cc(OC)c1OC	-52.2
108	CCOc1cccc(-c2ccc(C(N)=O)cn2)c1	64.0
109	O=C(CC1N=C2c3ccccc3N=C(SCc3cccc(F)c3)N2C1=O)NCCc1ccccc1 (stereo not given)	-40.3
110	CC#CCOC(=O)c1c(C)nc2sc3c(c2c1N)CCC(O)C3 (stereo not given)	20.3&14.8
111	Cc1cccc2c(-c3ccc(CN4CCN(C)CC4)cn3)c[nH]c12	56.3
112	CC(=O)N1CCC2(CC1)OC(=O)C(C)=C2C(=O)Nc1ccc(C)c(Cl)c1	1.6
113	CCN(CC)c1ccc([C@H]2[C@@H]3CCCC[C@]3(O)CCN2CC(=O)NCc2ccco2)cc1	15.6
114	CCn1cc(CN2CCC(O)(c3cccc(C(F)(F)F)c3)CC2)cn1	-48.1
115	Cc1cc(Nc2cccc(C(=O)NCc3ccccc3-n3ccnc3)c2)nc(C)n1	-43.4
116	COc1ccc(C2=CCCS2(=O)=O)c2ccc(C)nc12	5.0
117	Cc1cc(C(=O)N2CCc3onc(-c4ccc(C(F)(F)F)cc4)c3C2)no1	6.6
118	CCN1C[C@H](COC)[C@@]2(CCN(C(=O)c3cc4ccccc4s3)C2)C1	-0.2
119	CCOc1ccccc1-c1noc(-c2nnn(Cc3nc(-c4ccc(OC)cc4)oc3C)c2C)n1	-8.4
120	O=C(NC1CC1)c1cc2n(n1)CCCN(C(=O)Cc1c[nH]c3ccccc13)C2	-30.1
121	CCc1ncc(C(=O)N2CCc3[nH]c4ccc(OC)cc4c3C2)cn1	3.0

This is a subset. The share of hits here may be higher or lower than overall.
